Assay outcomes from PubChem.
Cruzain Triton = qHTS Assay for Promiscuous and Specific Inhibitors of Cruzain (with detergent) | Cruzipain (Trypanosoma cruzi), P25779 | purified cruzain, Z-FR-AMC fluorescence, 0.01% Triton | Potency, µM, inactives show max response, negative = inhibition, actives largely listed as inhibitors | 0.43% of 200,000 active | AID 1478, 2009; active = well fitted curve in the direction sought with a large enough effect; inconclusive = small, poorly fitted or top-dose-only effect, or another doubt; inactive = no such curve, though single readings can be large; an effect the other way counts as inactive or inconclusive;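 note: plate controls were neutral wells for no effect and buffer without enzyme for full effect; nearly all actives have a fitted effect of over 40% in size; top concentration of the series not given in the record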
Target sequence (P25779 123-467 limits assumed): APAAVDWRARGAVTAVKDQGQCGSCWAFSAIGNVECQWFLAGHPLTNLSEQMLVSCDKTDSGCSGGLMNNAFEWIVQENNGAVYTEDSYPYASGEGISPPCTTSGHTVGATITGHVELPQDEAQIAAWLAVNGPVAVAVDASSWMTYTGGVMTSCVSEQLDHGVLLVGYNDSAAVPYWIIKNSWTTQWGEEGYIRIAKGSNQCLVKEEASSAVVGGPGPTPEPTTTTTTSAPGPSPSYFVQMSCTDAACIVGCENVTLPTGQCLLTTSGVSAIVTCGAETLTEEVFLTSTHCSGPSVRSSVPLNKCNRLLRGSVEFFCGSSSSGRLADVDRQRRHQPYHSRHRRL
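Z-FR-AMC hydrolysis (2 uM substrate) by cruzain (1.5 nM) monitored kinetically at ex 360/em 450 nm after 15 min room-temperature compound exposure; 0.01% Triton X-100, pH 5.5, 5 mM DTT.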
MARV entry inh = qHTS for inhibitors of binding or entry into cells for Marburg Virus | 1.8% of 300,000 active | Marburg virus pseudotyped entry inhibition, cell reporter; control for the full effect not named in the record; about a third of the inactives were read at about 46 µM | Potency, µM (top dose mostly 37.8 µM), inactives show at the top dose activity change, negative = inhibition, actives largely listed as inhibitors; active = well fitted inhibition curve with a large enough effect; inconclusive = small, poorly fitted or top-dose-only effect, or effect the other way; inactive = flat fitted curve, though single readings scatter; tested in HEK293 cells; about a fifth of its hits are not listed in these tables; note: % is set by controls: 0 for no effect and ±100 for the full control effect; luciferase read-out
RE007 growth inh = qHTS Assay for Inhibitors of the HIV-1 protein Vpr; S. pombe RE007 Vpr strain, BacTiter-Glo ATP luminescence, 24 h; control for the full effect not named in the record; Potency, µM (series often up to 92.2 µM), without a hit: at the top dose activity change, negative = less growth; 0.21% of 360,000 active; AID 651644, 2012; active = well fitted falling curve with a large enough effect; inconclusive = small, poorly fitted or top-dose-only effect; inactive = no such curve, though single readings can be large or run the other way;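 note: % is set by controls: 0 for no effect and ±100 for the full control effect; nearly all actives have a fitted effect of over 50% in size; the assay follows cell death caused by Vpr and the record does not say whether a fall means rescue or toxicity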
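Fission yeast strain RE007, carrying one chromosomally integrated HIV-1 vpr copy, was seeded at OD 0.01 in PMG+AL medium with 23 nL pinned compound. After 24 h at 30 °C and 99% humidity, viability was read by BacTiter-Glo luminescence.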
NS1 inh = qHTS Assay for Inhibitors of Influenza NS1 Protein Function; S. cerevisiae slowed by influenza A NS1, growth recovery by OD600; 0.4% of 270,000 active; Potency, µM (titrated, usually from 46.1 µM), inactives show at the top dose activity, positive = more growth; note: actives are rising curves; nearly all actives have a fitted effect of over 50% in size
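Read-out: OD600 growth recovery of NS1-expressing budding yeast. Cells grown overnight at 30C in -URA glucose medium, washed, resuspended and diluted 1:100 in 2% galactose assay medium, pH 6.0. Same strain lacking NS1 served as positive control.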
StopGo reporter = High Throughput Screening for Foot and Mouth Disease Virus Antivirals | human cells with a luciferase reporter of 2A StopGo recoding; control for the full effect not named in the record | 1.2% of 410,000 active | Potency, µM (doses to about 57.9 µM), for inactives: at the top dose signal change, negative = less light; active = well fitted falling curve with a large enough effect; inconclusive = small, poorly fitted or top-dose-only effect; inactive = no such curve, though single readings can be large or run the other way; tested in HEK293T cells; note: % is set by controls: 0 for no effect and ±100 for the full control effect; nearly all actives have a fitted effect of over 45% in size; luciferase light after 4 h
SARS PLpro yeast = qHTS of Yeast-based Assay for SARS-CoV PLP; S. cerevisiae expressing SARS-CoV PLpro, growth rescue; control for the full effect not named in the record; Potency, µM (highest dose often 32.9 µM), inactives show top-dose activity, positive = growth rescue; 0.19% of 330,000 active; note: 0% is about no effect; nearly all actives have a fitted effect of over 55% in size; growth read by luminescence after 48 h
Cruzain noTriton = qHTS Assay for Promiscuous and Specific Inhibitors of Cruzain (without detergent). purified cruzain, Z-FR-AMC fluorescence, no detergent. AID 1476, 2009. 2.3% of 200,000 active. Potency, µM, for inactives: max response, negative = inhibition, most hits filed as inhibitors. Cruzipain (Trypanosoma cruzi), P25779; active = well fitted curve in the direction sought with a large enough effect; inconclusive = small, poorly fitted or top-dose-only effect, or another doubt; inactive = no such curve, though single readings can be large; an effect the other way counts as inactive or inconclusive;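 note: plate controls were enzyme without inhibitor for no effect and buffer without enzyme for full effect; nearly all actives have a fitted effect of over 40% in size; top concentration of the series not given in the record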
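Detergent-free condition (0.00005% Triton X-100) in acetate buffer pH 5.5 with DTT. 1.5 nM enzyme and compound were pre-mixed 15 min, then 2 uM Z-FR-AMC substrate added; reaction progress from fluorescence change between first and third reads (60 s).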
LASV entry inh = qHTS for Inhibitors of binding or entry into cells for Lassa Virus. Lassa virus pseudotype entry inhibition, cell reporter; control for the full effect not named in the record. Potency, µM (series often up to 37.9 µM), for the others: at the highest dose activity change, negative = inhibition, usual class: inhibitors. 1.2% of 300,000 active. AID 540256, 2011; active means well fitted inhibition curve with a large enough effect; inconclusive means small, poorly fitted or top-dose-only effect, or effect the other way; inactive means flat fitted curve, though single readings scatter; tested in HEK293 cells; note: % is set by controls: 0 for no effect and ±100 for the full control effect; nearly all actives have a fitted effect of over 50% in size; luciferase read-out
* hit, by the source's call; ? = inconclusive; . = no result given; & = joins results of further samples; [ ] = remark or other dose. Unless noted, calls come from the whole dose curve; as a rule, active means well fitted rising curve with a large enough effect; inconclusive means small, poorly fitted or top-dose-only effect; inactive means no such curve, though single readings can be large or run the other way. Potency is the fitted concentration of half-maximal effect.

SMILES | Cruzain Triton | MARV entry inh | RE007 growth inh | NS1 inh | StopGo reporter | SARS PLpro yeast | Cruzain noTriton | LASV entry inh
CCc1nnc2sc(-c3ccc(NC(=O)CSc4ccc(Cl)cc4)cc3)nn12 | . | 3.5%&3.5% | 8.7% | -9.8% | 1.8% | . | . | 7.5%
COc1ccc(NC(=O)CN(C)S(=O)(=O)c2ccc(Cl)cc2)cc1Cl | -3.0% | -28.5% | -6.3% | -2.1% | -3.8% | 5.1% | 6.4% | -16.5%
Cc1cccc(OCC(=O)Nc2ccc3oc(-c4ccccc4F)nc3c2)c1 | -5.3% | 12.6%[46.1 µM] | . | . | -2.7% | . | 1.2% | ?
O=C(NCc1ccncc1)c1cc(S(=O)(=O)N2CCOCC2)c(Cl)cc1Cl | . | 1.3% | -4.1% | . | 3.7% | 3.7% | . | 6.9%
CCOc1ccc2nc(SCC(=O)c3cccs3)sc2c1 | -5.6% | ? | 15.3% | 14.7% | 55.7%[activator] | -3.9% | -9.4% | ?
O=[N+]([O-])c1ccc(N2CCN(c3ccccn3)CC2)c(Cl)c1 | . | -26.3%[46.1 µM] | -32.5% | -10.3% | ? | -3.5% | . | .
CCc1ccccc1NC(=O)CNC(=O)c1ccc(OCc2cn3ccccc3n2)cc1 | . | 16.8%[46.1 µM] | -8.3% | . | 26.3% | -3.0% | . | -3.4%[46.1 µM]
CCN1CCN(CCCNC(=O)CCC(=O)N2CC(C)Oc3ccc(C)cc32)CC1 (stereo not given) | . | . | 2.0% | -3.7% | -1.2% | -1.6% | . | .
Fc1cccc(/C=N/Nc2nccnc2Cl)c1 | . | . | ? | -17.1% | 74.6%[activator] | -10.6% | . | .
COc1ccc(/C=N/Nc2nc(Nc3ccccc3)nc(N3CCCC3)n2)cc1 | . | 4.8%[46.1 µM] | -0.3% | . | -11.0% | 1.6% | . | 6.4%
Nc1nc(N)n(-c2ccccc2)c(=Nc2ccccc2)n1 | . | . | 1.3% | 1.7% | -2.0% | 1.1% | . | .
O=C(NC1CCCC1)C(c1ccncc1)N(C(=O)c1csnn1)c1ccccc1 (stereo not given) | . | ? | -3.1% | 3.5% | -9.0% | -1.3% | . | 2.0%

The list goes on (4 carried over from the part before).
SMILES | Cruzain Triton | MARV entry inh | RE007 growth inh | NS1 inh | StopGo reporter | SARS PLpro yeast | Cruzain noTriton | LASV entry inh
Fc1cccc(/C=N/Nc2nccnc2Cl)c1 | . | . | ? | -17.1% | 74.6%[activator] | -10.6% | . | .
COc1ccc(/C=N/Nc2nc(Nc3ccccc3)nc(N3CCCC3)n2)cc1 | . | 4.8%[46.1 µM] | -0.3% | . | -11.0% | 1.6% | . | 6.4%
Nc1nc(N)n(-c2ccccc2)c(=Nc2ccccc2)n1 | . | . | 1.3% | 1.7% | -2.0% | 1.1% | . | .
O=C(NC1CCCC1)C(c1ccncc1)N(C(=O)c1csnn1)c1ccccc1 (stereo not given) | . | ? | -3.1% | 3.5% | -9.0% | -1.3% | . | 2.0%
Cc1ccc(C2C=C(c3ccccc3)Nc3nc(NS(C)(=O)=O)nn32)cc1 (stereo not given) | -4.6% | -18.5%[46.1 µM] | . | . | -10.5% | . | -5.0% | 5.3%[46.1 µM]
CCn1c(SCC(=O)N/N=C/C=C/c2ccccc2[N+](=O)[O-])nnc1-c1ccc(Cl)cc1 | -2.6% | -5.2% | . | 0.8% | . | 8.1% | -5.6% | .
Cc1cccc(NS(=O)(=O)c2c(C(=O)N3CCCC3)c(C)n(C)c2C)c1 | . | 8.8%[46.1 µM] | 8.7% | 1.7% | 28.8% | 7.0% | . | 16.5%[46.1 µM]
N#Cc1ccsc1NC(=O)CN1CCOCC1 | . | -10.5%[46.1 µM] | 2.1% | 2.1% | -12.2% | 0.9% | . | 18.3%[46.1 µM]
CCOc1ccc(Cn2nnc(C(=O)Nc3ccc(Cl)cc3)c2N)cc1 | 3.0% | 15.1%[46.1 µM] | . | . | 4.8% | . | 2.4% | 12.2%[46.1 µM]
COc1ccccc1N(CN1C(=O)c2ccccc2C1=O)C(=O)c1cccc(C)c1 | -3.0% | 11.2% | 11.7% | 4.5% | ? | -13.4% | 1.3% | 22.8%
COc1ccccc1C(=O)NCCC(=O)NNC(=O)Cn1ccc(C(F)(F)F)n1 | . | 11.7%[46.1 µM] | 4.1% | . | 18.7% | 0.7% | . | 16.4%
CCOC(=O)C1(CCc2ccccc2)CCN(Cc2ccccn2)CC1 | . | ? | 5.3% | -0.1% | -9.0% | -0.8% | . | -4.2%
CC1CN(c2nc3ccccc3nc2NS(=O)(=O)c2ccccc2)CC(C)O1 (stereo not given) | . | 3.1%[46.1 µM] | -4.4% | . | -9.6% | -2.9% | . | -5.9%[46.1 µM]
Cn1c(=O)c(NC(=O)c2ccccc2)c2n(c1=S)CCCCC2 | 1.7% | 16.7% | 14.7% | -14.0% | -6.0% | -0.8% | 1.6% | ?
Cc1ccc(C(=O)NCC(=O)OCC(=O)Nc2ncc(C(F)(F)F)cc2Cl)cc1 | 7.08µM* | -7.0%[46.1 µM] | 2.1% | 13.7% | -1.6% | -27.4% | 6.31µM* | -13.2%
C/C=C/CSc1nc2c(c(=O)[nH]c(=O)n2C)n1C(C)C | -2.8% | -23.1% | 1.8% | -11.6% | -6.1% | 6.3% | 0.0% | -29.0%
COc1cc(NC(=O)CSc2ncnc3c2cnn3Cc2ccccc2)cc(OC)c1 | -5.6% | ? | 8.7% | 5.6% | 4.3% | -4.3% | 13.5% | -0.8%
Cc1cc(C)nc(NC(=O)CN2C(=O)c3ccccc3S2(=O)=O)n1 | . | 0.0% | 4.7% | . | -0.9% | -1.2% | . | -10.0%
O=C(Cc1ccsc1)Nc1ccccc1F | . | 10.3%[46.1 µM] | 2.4% | -0.6% | 31.1%[activator] | 13.2% | . | 4.4%
Cc1cc(C)c(S(=O)(=O)NCCn2ccc3ccccc32)c(C)c1 | -8.9% | . | -12.9% | -38.4% | 68.1%[activator] | -24.9% | -2.5% | .
Cn1c(CNC(=O)c2cccs2)n[nH]c1=S | 0.2% | ? | -12.4% | 11.2% | -21.2% | 23.0% | 0.8% | -1.2%
COC(=O)C1=CO[C@@H](C)[C@H]2CN3CCc4c([nH]c5ccccc45)[C@@H]3C[C@H]12 | 0.8%&-2.3% | . | -6.8%[18.4 µM] | . | ? | . | -14.8%&-8.2% | .
Nc1nc(-c2ccc3c(c2)NC(=O)CO3)cs1 | 10.8% | -19.5% | 4.9% | 16.5% | 10.0% | 1.6% | 2.8% | 7.4%
CCCc1nc(N)c(C#N)c(-c2cccnc2)c1CC | -3.2% | . | 2.4% | -16.9% | -24.8% | -6.0% | -5.6% | .
O=C(Nc1ccc(S(=O)(=O)N2CCCCC2)cc1)c1ccncc1 | -3.7% | -24.9% | -4.7% | -9.2% | -18.4% | -6.6% | 17.8% | -0.7%
COc1cc(OC)cc(C(=O)Nc2ccc(-c3nc4ccccc4s3)c(C)c2)c1 | 1.2% | . | . | . | 12.2% | . | -5.5% | 0.4%[46.1 µM]
COc1ccccc1NC(=O)CSc1nnc(-c2ccccc2C)o1 | -7.5% | ? | . | . | -0.6% | . | -4.2% | ?
Cc1ccc(N2C(=O)C(CN(C)C)C2c2ccccc2)cc1 (stereo not given) | 1.4% | ? | -9.7% | 6.3% | -16.1% | 2.6% | -3.3% | -6.7%
CS(=O)(=O)N(CC(=O)N1CCc2ccccc2C1)Cc1ccc(F)cc1 | . | . | -5.8% | 3.5% | -16.6% | -2.3% | . | .
Cc1ccc(-n2nc(C)c3c(C)cc(=O)[nH]c32)cc1 | 2.7% | 18.7% | -8.3% | 1.2% | 32.7%[activator] | 1.9% | -5.8% | ?
CNC(=O)CC1C(=O)N(c2ccc(OC)cc2)C(=S)N1NC(=O)c1cccc(F)c1 (stereo not given) | . | -1.7%[14.2 µM] | 0.8% | 2.3% | 11.6% | 0.1% | . | 13.0%
COc1ccc(S(=O)(=O)N2CCCC2CNC(=O)C(=O)NCc2ccccc2Cl)cc1 (stereo not given) | . | ? | 11.6% | . | -7.3% | 2.1% | . | ?
CCOC(=O)c1c(C)n(OC)c2ccc3c(no[n+]3[O-])c12 | 6.3% | 6.0% | -9.7% | -3.3% | . | -10.0% | -2.9% | 3.4%
COc1ccccc1N(Cc1cc2cccc(C)c2[nH]c1=O)C(=O)c1cccc(Cl)c1 | -2.4% | -14.2%[46.1 µM] | . | . | -16.9% | . | -12.8% | ?
CC(=O)N1c2ccc(S(=O)(=O)N3CCCCC3)cc2CC1C(=O)NCc1ccc(N(C)C)cc1 (stereo not given) | . | 14.7%[46.1 µM] | 0.0% | -1.1% | -3.1% | ? | . | -9.0%[46.1 µM]
O=C1NC(=S)N/C1=C/c1cccnc1 | . | . | 5.5% | -35.5% | -14.6% | 1.5% | . | .
C#CCOCCOCCOCCNc1nc(N2CCOCC2)nc(N2CCN(C(=O)[C@H](CCCCN)n3cc([C@@H](N)C(C)CC)nn3)CC2)n1 (stereo not given in full) | . | . | -2.6% | -0.7% | -22.3% | -0.3% | . | .
COC(=O)N/N=C/c1c(C)c(C(=O)c2ccc(F)cc2)n2ccccc12 | 0.1% | ? | 0.7% | 9.8% | 35.5µM* | 6.2% | -5.1% | ?
CCCCN1/C(=C/c2cccc[n+]2C)Sc2cc(NC(C)=O)ccc21 | . | . | 1.2% | 1.1% | -5.8% | -3.1% | . | .
CCc1nnc(NC(=O)CSc2ncc(-c3ccccc3)n2CC)s1 | -2.0% | -14.7% | 0.0% | -27.5% | -24.5% | -2.7% | -2.1% | -22.4%
